KCNQ2 block: KCNQ2 channel blockers in CHO-K1 cells – cell-based, FluxOR thallium flux, B-score, primary screen (AID 2156); B-score at 10 µM; 20 min; active compounds read low; only compounds with negative scores are shown here; some inactives read as strong as hits; actives 1.1% (n = 310,000); O88943;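 active = fluorescence ratio B-score at most minus 3 library SDs, with starting brightness B-score within 2 library SDs, cut at about -5.5 in these data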
Target sequence (O88943 whole entry, looked up): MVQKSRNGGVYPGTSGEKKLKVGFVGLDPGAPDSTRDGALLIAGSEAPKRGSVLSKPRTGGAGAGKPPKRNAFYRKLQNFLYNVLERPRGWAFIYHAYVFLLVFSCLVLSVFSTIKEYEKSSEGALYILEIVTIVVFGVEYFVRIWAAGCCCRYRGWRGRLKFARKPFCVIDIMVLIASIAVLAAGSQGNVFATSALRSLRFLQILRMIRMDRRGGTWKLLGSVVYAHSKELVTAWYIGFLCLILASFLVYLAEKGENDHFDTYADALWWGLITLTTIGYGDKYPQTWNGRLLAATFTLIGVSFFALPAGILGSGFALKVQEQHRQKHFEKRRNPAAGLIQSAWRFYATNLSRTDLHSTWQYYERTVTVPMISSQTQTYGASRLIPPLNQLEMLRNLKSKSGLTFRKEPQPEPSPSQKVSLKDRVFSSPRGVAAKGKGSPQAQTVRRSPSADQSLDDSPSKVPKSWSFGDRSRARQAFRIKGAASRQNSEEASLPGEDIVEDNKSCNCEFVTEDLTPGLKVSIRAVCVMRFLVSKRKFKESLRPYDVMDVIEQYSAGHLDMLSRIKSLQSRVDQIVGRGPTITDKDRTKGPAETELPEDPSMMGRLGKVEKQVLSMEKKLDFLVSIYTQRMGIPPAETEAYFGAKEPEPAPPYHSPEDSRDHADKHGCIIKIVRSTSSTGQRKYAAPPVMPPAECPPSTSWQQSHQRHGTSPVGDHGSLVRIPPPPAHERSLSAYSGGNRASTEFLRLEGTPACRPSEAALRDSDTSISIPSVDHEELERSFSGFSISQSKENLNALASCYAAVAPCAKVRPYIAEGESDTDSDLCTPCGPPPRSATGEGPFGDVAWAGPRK
KCNQ2 block baseline: also measured in KCNQ2 block; calls as there; B-score; measured here: initial fluorescence intensity artifact check;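 brightness before thallium and not channel activity; 0 = typical well and far values either way flag optical interference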
The depositor's hits bear a star; i = inactive. An excerpt. The share of hits here may be higher or lower than overall.

SMILES | KCNQ2 block | KCNQ2 block baseline
Cc1sc2ncn(-n3c(C)ccc3C)c(=O)c2c1C | -5.72* | 1.23*
Cc1cccc(OC2CCN(Cc3nc(CC4CC4)no3)CC2)c1 | i | 0.77
CCN(Cc1ccncc1)C(=O)CCc1ccccc1 | i | 0.25
COc1cc(NC(=O)COC(=O)CO/N=C(\C)c2ccc3c(c2)OCO3)cc(OC)c1OC | i | 3.24
O=C(O)c1ccc(Nc2nc(-c3cccnc3)cs2)cc1 | i | 0.61
CCc1nnc(SCCSc2nnc(CC)n2N)n1N | i | -0.43
Cc1ccc(S(=O)(=O)/C(C#N)=C/c2c[nH]c3ccccc23)cc1 | i | 0.43
COc1ccc(C2=NO[C@@](CC(=O)O)(C(=O)Nc3ccc4c(c3)OCCO4)C2)cc1 | i | 0.98
COc1ccc(OCC(=O)N2CCCC(CO)(CCOc3ccccc3)C2)cc1 (stereo not drawn) | i | -0.82
O=C(Nc1cc(Oc2ccc(Cl)cc2)cc([N+](=O)[O-])c1)c1ccco1 | i | 1.48
OC1(c2cccc(F)c2)CCN(Cc2ccncc2)CC1 | i | 1.17
C=CCNC(=S)Nc1ccc(F)cc1F | i | -1.03
COc1ccc2nc(SCC(=O)Nc3ccc4c(c3)CCC4)[nH]c2c1 | i | -0.42
CC1CCN(C(=O)c2ccc(-c3ccccc3Cl)o2)CC1 | i | 0.79
O=C(Cc1csc(Nc2nc(=S)[nH]c3ccccc23)n1)NCCCN1CCN(c2cccc(Cl)c2)CC1 | i | 0.16
CN(C)c1ccc(/C=C2\SC(=S)N(Nc3ncc(C(F)(F)F)cc3Cl)C2=O)cc1 | i | 11.6
Cc1ccc(-n2cc(CN(C)CCc3cn[nH]c3)c(-c3cccc(C)c3)n2)cc1 | i | -0.79
Cc1cc(C)cc(OCC(=O)OC(C)C(=O)Nc2c(C)n(C)n(-c3ccccc3)c2=O)c1 (stereo not drawn) | i | 0.32
Cc1nc(C)c(-c2nnc(-c3ccc(C(C)(C)C)cc3)o2)cc1C(=O)NN | i | -0.94
Cc1ccc(/C=N/NC(=O)CSc2nc3ccccc3n2Cc2ccccc2)o1 | i | -1.85
Cc1nc(C(F)(F)F)c(C(=O)NC(=O)Nc2ccccc2)s1 | i | 1.07
CCc1nnc(NC(=O)CN2CCN(c3nc(-c4ccccc4)cs3)CC2)s1 | i | -1.49
Cc1cc(NC(=O)c2ccccc2)n(C(C)(C)C)n1 | i | -2.32
CN1CCN(C(=S)NC(=O)c2cccc([N+](=O)[O-])c2)CC1 | i | 1.02
CCc1ccc(C(=O)N/N=C/c2cccc3ccccc23)nc1 | i | 0.85
Cc1nn(-c2cc(N3CCNCC3)ccc2[N+](=O)[O-])c(=O)c2ccccc12 | i | -0.63
CC(=NCCc1c(C)[nH]c2ccc(OC(F)(F)F)cc12)C1=C(O)CC(c2ccccc2)CC1=O (stereo not drawn) | i | 0.27
COc1ccc(/C=C2/SC(=O)N(NS(=O)(=O)c3ccccc3)C2=S)cc1OC | i | 1.32
Cc1c(Cl)cccc1NC(=S)N(CCCN1CCOCC1)Cc1ccco1 | i | 1.18
CC(=O)c1cccc(NC(=O)c2nccnc2C(=O)O)c1 | i | -0.08
CCCNC(=S)N1CCN(C(c2ccccc2)c2ccccc2)CC1 | i | 0.08
CCOc1cc(/C=C2\C(=O)NN(c3ccccc3)C2=O)cc([N+](=O)[O-])c1O | i | -1.47
CCn1c2ccccc2c2cc(NS(=O)(=O)c3ccccc3C)ccc21 | i | -0.29
CCn1cc(C(=O)NCCCOC)c(=O)c2cc(S(=O)(=O)N3CCC(C)CC3)ccc21 | i | -1.15
CC(C)CCn1c(NCCN(C)C)nc2c1c(=O)[nH]c(=O)n2C | i | 0.11
O=C(c1ccc(Cl)c(F)c1F)N1CCCC1 | i | 4.3
Cc1ccc2nc(CSc3nnc(Cc4cccs4)n3C3CCCCC3)cc(=O)n2c1 | i | -0.6
CCOC(=O)C1CCCN(C(=O)c2cc(-c3ccc(C)cc3)nc3ccccc23)C1 (stereo not drawn) | -5.63* | -1.87*
Cc1ccc(S(=O)(=O)Cn2nnnc2C(CC(C)C)N2CCN(c3ccc(F)cc3)CC2)cc1 (stereo not drawn) | i | 1.76
C=CCn1c(SCC(N)=O)nnc1-c1cc2c(s1)CCC(CC)C2 (stereo not drawn) | i | 0.48
COc1cc2c(cc1NC(=S)Nc1ccccc1C)oc1ccccc12 | i | 0.11
COc1ccc(C(=O)CSc2ccc3nnc(-c4cccnc4)n3n2)cc1 | i | 4.05
CCCc1cc(-c2n[nH]c(=S)n2Cc2ccccc2)cs1 | i | -1.06
CC(/C=N/NC(=O)COc1ccccc1C)=N\NC(=O)COc1ccccc1C | i | 0.66
CCOC(=O)Cn1nnnc1CN1CCN(c2ccc(OC)cc2)CC1 | i | 0.19
CN(CC(=O)O)S(=O)(=O)c1ccc2[nH]c(=O)c(=O)[nH]c2c1 | i | -0.15
COCCNC(=O)C(c1ccc(C)o1)N(CCOC)C(=O)Cn1nnc2ccccc21 (stereo not drawn) | i | -0.6
O=C(Nc1ccc([N+](=O)[O-])cc1)Nc1nc(-c2ccc(Cl)s2)cs1 | i | 1.29
COc1ccc(-c2ccnc3ncnn23)cc1 | i | 0.01
O=C1c2ccccc2NC(c2cc(Cl)cc(Cl)c2O)N1Cc1cccnc1 (stereo not drawn) | i | -0.1
O=C(Nc1ccc(Cl)cn1)c1ccc(-c2cc(Cl)ccc2Cl)o1 | i | -0.39
COc1ccc(CCN(C)CCC(=O)Nc2cccc(C)c2)cc1OC | i | 0.89
Cc1ccc(C(=O)OCC(=O)Nc2cc(C(C)(C)C)nn2-c2ccccc2)c(O)c1 | i | 0.07
O=[N+]([O-])c1cn(Cc2ccccc2)cn1 | i | 0.91
Cc1cc(C)cc(C(=O)NCC(=O)OCC(=O)NCC(F)(F)F)c1 | i | 3.49
Cc1ccc(SCC(=O)Nc2nnc(C(C)(C)C)s2)cc1 | i | 1.26
O=c1[nH]c2ccccc2nc1-c1cccs1 | i | -0.65
Cn1c(=O)c2cn(-c3cccc4ccccc34)cc2n(C)c1=O | i | 0.32
CC(=O)NC(Cc1ccc(F)cc1)C(=O)NC1CCN(S(=O)(=O)c2ccccc2)CC1 (stereo not drawn) | i | 2.02
CC(C)c1nc(Cl)c(C#N)c2c1CCCC2 | i | -1.14

Some of the entries so far, in CSV form.
Molecule,KCNQ2 block,KCNQ2 block baseline
COc1cc2c(cc1NC(=S)Nc1ccccc1C)oc1ccccc12,i,0.11
COc1ccc(C(=O)CSc2ccc3nnc(-c4cccnc4)n3n2)cc1,i,4.05
CCCc1cc(-c2n[nH]c(=S)n2Cc2ccccc2)cs1,i,-1.06
CC(/C=N/NC(=O)COc1ccccc1C)=N\NC(=O)COc1ccccc1C,i,0.66
CCOC(=O)Cn1nnnc1CN1CCN(c2ccc(OC)cc2)CC1,i,0.19
CN(CC(=O)O)S(=O)(=O)c1ccc2[nH]c(=O)c(=O)[nH]c2c1,i,-0.15
COCCNC(=O)C(c1ccc(C)o1)N(CCOC)C(=O)Cn1nnc2ccccc21 (stereo not drawn),i,-0.6
O=C(Nc1ccc([N+](=O)[O-])cc1)Nc1nc(-c2ccc(Cl)s2)cs1,i,1.29
COc1ccc(-c2ccnc3ncnn23)cc1,i,0.01
O=C1c2ccccc2NC(c2cc(Cl)cc(Cl)c2O)N1Cc1cccnc1 (stereo not drawn),i,-0.1
O=C(Nc1ccc(Cl)cn1)c1ccc(-c2cc(Cl)ccc2Cl)o1,i,-0.39
COc1ccc(CCN(C)CCC(=O)Nc2cccc(C)c2)cc1OC,i,0.89
Cc1ccc(C(=O)OCC(=O)Nc2cc(C(C)(C)C)nn2-c2ccccc2)c(O)c1,i,0.07
O=[N+]([O-])c1cn(Cc2ccccc2)cn1,i,0.91
Cc1cc(C)cc(C(=O)NCC(=O)OCC(=O)NCC(F)(F)F)c1,i,3.49
Cc1ccc(SCC(=O)Nc2nnc(C(C)(C)C)s2)cc1,i,1.26
O=c1[nH]c2ccccc2nc1-c1cccs1,i,-0.65

Other entries:
SMILES | KCNQ2 block | KCNQ2 block baseline
CCOc1cc(/C=N/NC(=O)c2c(-c3ccccc3)noc2C)ccc1O | i | -0.04
Cc1cccc(C(C)C)c1NC(=O)c1ccc(CN(c2ccccc2)S(=O)(=O)c2ccccc2)cc1 | i | 1.27
CCCCNC(=O)c1ccc(NC(C)=O)c(Cl)c1 | i | 0.24
CCOC(=O)C(C)n1cnc2scc(-c3ccc(C)c(C)c3)c2c1=O (stereo not drawn) | i | -0.05
CC1(OC(=O)CCc2ccccc2)C(=O)C=C2C=C(c3ccc(C#N)cc3)N(CCN3CCOCC3)C=C2C1=O (stereo not drawn) | i | -0.56
CC(C)[C@@H](NC(=O)OC(C)(C)C)C(=O)NCC1CCC(C(=O)N[C@@H](Cc2ccccc2)C(=O)O)CC1 (stereo partly drawn) | i | -1.13
O=C1CCCc2ccccc2N1Cc1ccc(F)cc1 | i | -0.28
Cc1cc(C)c2sc(N(CCN(C)C)C(=O)c3cc(Cl)sc3Cl)nc2c1 | i | 1.33
COc1cc(C)c(C)cc1S(=O)(=O)N1CCN(Cc2ccc3c(c2)OCO3)CC1 | i | 1.36
O=C(/C=C/c1ccc2c(c1)OCO2)NCCSCc1c(Cl)cccc1Cl | i | 0.04
COC(=O)c1ccc(-c2cc(C(=O)O)c3cc4c(cc3n2)OCCO4)cc1 | i | 0.74
CC(C)N1CCN(Cc2ccc(C#CC(C)(C)O)cc2)CC1CCO (stereo not drawn) | i | 0.84
CCOCCCn1c(=N)c(C(=O)NCc2ccc3c(c2)OCO3)cc2c(=O)n3cccc(C)c3nc21 | i | -2.99
CCN1CCN(c2c(Cl)cccc2NC(=O)c2ccc(Br)o2)CC1 | -6.14* | -1.4*
CCN(c1ccc2c(c1)OCO2)S(=O)(=O)c1cc(Br)cc2c1N(C(C)=O)CC2 | i | 1.57
COC(=O)c1c(-c2ccc(OC)cc2)oc2ccc(-c3cc(OC)c(OC)c(OC)c3)cc12 | i | 1.3
C=C(C)COc1ccc(-c2ncnc(C(F)(F)F)c2-c2ccccc2)c(O)c1 | i | -0.17
CCOC(=O)CC1ON(C)C(=O)N1c1ccc(Cl)cc1Cl (stereo not drawn) | i | 0.4
CN1CCCN(C(=O)CSc2ccccc2)CC1 | i | -3.41
O=C(NCCC(c1ccccc1)c1ccco1)c1cccs1 (stereo not drawn) | i | 1.44
Cc1nc2ccccc2nc1OCC(=O)Nc1ccccc1 | i | 1.73
CC(=O)N1N=C(c2ccc([N+](=O)[O-])cc2)CC1c1ccccc1Cl (stereo not drawn) | i | -0.95
COc1ccc(F)cc1C(=O)C1CCCN(Cc2c[nH]c3ccccc23)C1 (stereo not drawn) | i | -1.19
CC(=O)c1ccc(N2CCN(C(=O)c3ccc(Cn4c(=S)[nH]c5ccc(N6CCOCC6)cc5c4=O)cc3)CC2)cc1 | i | -0.63
CCN(CC(=O)Nc1ccccc1C(F)(F)F)C(=O)C1CCC1 | i | 1.37
O=S(=O)(NCC(c1ccco1)N1CCN(c2ccc(F)cc2)CC1)c1ccc2c(c1)OCCO2 (stereo not drawn) | i | 0.02
COC(=O)c1cc(S(=O)(=O)N2CCN(c3ccccc3OC)CC2)cn1C | i | -0.17
Cc1cccc(-n2ccnc2SCC(=O)N2CCCc3ccccc32)c1C | i | 0.6
O=C(NCCc1ccccc1)c1ccc(NC2=NC3CS(=O)(=O)CC3S2)cc1 (stereo not drawn) | i | 0.51
Cc1nnc(SCCOC(N)=O)n1C | i | -0.22
Cc1nc2c(C#N)c(-c3ccc(Cl)cc3)ccn2n1 | i | 0.94
COc1cc(OC)cc(-c2nnc(SCC(=O)N3CCOCC3)o2)c1 | i | -0.45
CCC(=O)N1CCNC(=O)C1CC(=O)Nc1ccc(C)c(Cl)c1 (stereo not drawn) | i | 2.26
Cc1cc(C)c(C#N)c(SCC(=O)NC2CC2)n1 | i | 2.64
COC(=O)Cn1cnc2c(cnn2-c2ccc(C)cc2)c1=O | i | 2.33
NC(=O)N/N=C(/CCCCCC/C(=N\NC(N)=O)c1ccccc1)c1ccccc1 | i | 0.41
COc1ccc(C(=O)N2CCCc3ccccc32)cc1OC | i | 0.01
CSc1sc(C(=O)Nc2ccc(F)cc2F)c2c1C=CCC2 | i | -0.56
COC(=O)c1sc2nc(-c3ccccc3)nc(N3CCN(C)CC3)c2c1C | i | 1.03
CC(=O)N1CC2([N+](=O)[O-])CN(C(C)=O)CC([N+](=O)[O-])(C1)C2(C)C | i | 1.75
COc1cccc(CN2CCN(S(=O)(=O)c3ccc(NC(C)=O)cc3)CC2)c1OC | i | 0.2
O=[N+]([O-])c1c(NCCCO)cc(Sc2ccc(Cl)cc2)c2nonc12 | i | -3.29
Cc1ccccc1CN1C(=O)[C@@H]2Cc3c([nH]c4ccccc34)C(C)(C)N2C1=O | i | 1.07
O=C(CCCC(=O)N(c1ccc(F)cc1)C(C(=O)NC1CCCC1)c1ccc(O)cc1)Nc1ccccn1 (stereo not drawn) | i | -0.67
CC(=O)NCCn1c(SCc2ccccc2C)nc2ccccc2c1=O | i | -0.54
Cc1ccc(NC(=O)CN(C)Cc2ccc(F)cc2)c([N+](=O)[O-])c1 | i | 0.01
O=C(Nc1ccccc1)O/N=C1/CCCc2occc21 | i | -0.6
Cc1cc(C(F)(F)F)nc(NCc2ccc(F)cc2)n1 | i | 0.99
CCCCN(C)CCCN1C(=O)C2C(C(=O)Nc3cccc(OC)c3)C3C=CC2(O3)C1C(=O)NC1CCCCC1C (stereo not drawn) | i | 1.15
COc1ccc(CC(=S)N2CCOCC2)cc1 | i | -2.52
O=c1onc(-c2cccs2)n1Cc1ccccc1 | i | -1.93
CCN(CC(=O)NCCc1ccc(S(N)(=O)=O)cc1)Cc1ccccc1 | i | -0.89
COc1ccc(NC(=O)N2CCCC(C(=O)NCc3ccccc3F)C2)cc1 (stereo not drawn) | i | -0.68
O=C(Nc1cccc(F)c1)Nc1ccnn1C1CCN(C(=O)CCN2CCCO2)CC1 | i | 1.26
